# Screening data deposited in PubChem BioAssay by National Center for Advancing Translational Sciences (NCATS).
# NS1 inh = qHTS Assay for Inhibitors of Influenza NS1 Protein Function | 270,000 compounds, 0.4% hits | S. cerevisiae slowed by influenza A NS1, growth recovery by OD600 | Potency, µM (top dose mostly 46.1 µM), without a hit: at the top dose activity, positive = more growth | AID 2326, 2010; note: actives are rising curves; nearly all actives have a fitted effect of over 50% in size
#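 Compounds were scored for reversing the slow growth caused by influenza A NS1 in S. cerevisiae, measured by optical density at 600 nm. Assay medium contained 2% galactose at pH 6.0; NS1-free yeast of the same strain were the positive control.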
# Cruzain noTriton = qHTS Assay for Promiscuous and Specific Inhibitors of Cruzain (without detergent) | Potency, µM, inactives show max response, negative = inhibition, hits mostly inhibitors | 200,000 compounds, 2.3% hits | Cruzipain (Trypanosoma cruzi), P25779 | purified cruzain, Z-FR-AMC fluorescence, no detergent | AID 1476, 2009; active = well fitted curve in the direction sought with a large enough effect; inconclusive = small, poorly fitted or top-dose-only effect, or another doubt; inactive = no such curve, though single readings can be large; an effect the other way counts as inactive or inconclusive;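 note: plate controls were enzyme without inhibitor for no effect and buffer without enzyme for full effect; nearly all actives have a fitted effect of over 40% in size; top concentration of the series not given in the record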
# Target sequence (P25779 123-467 limits assumed): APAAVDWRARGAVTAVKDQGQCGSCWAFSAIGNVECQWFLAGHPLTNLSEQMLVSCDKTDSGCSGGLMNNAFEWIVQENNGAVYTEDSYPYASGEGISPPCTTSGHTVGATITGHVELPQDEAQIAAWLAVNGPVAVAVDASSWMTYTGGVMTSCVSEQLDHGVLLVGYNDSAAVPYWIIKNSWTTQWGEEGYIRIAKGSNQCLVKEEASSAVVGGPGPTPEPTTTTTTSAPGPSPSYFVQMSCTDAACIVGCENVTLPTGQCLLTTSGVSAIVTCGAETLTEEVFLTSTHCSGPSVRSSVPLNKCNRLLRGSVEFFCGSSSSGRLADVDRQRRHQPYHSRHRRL
#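 Purified cruzain at 1.5 nM, pre-incubated 15 min with compound at room temperature in 100 mM sodium acetate pH 5.5, 5 mM DTT, 0.00005% Triton X-100. Reaction started with 2 uM Z-FR-AMC; AMC fluorescence increase over 60 s gives rate.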
# SARS PLpro yeast = qHTS of Yeast-based Assay for SARS-CoV PLP. S. cerevisiae expressing SARS-CoV PLpro, growth rescue; control for the full effect not named in the record. Potency, µM (series often up to 32.9 µM), inactives show at the top dose activity, positive = growth rescue. 330,000 compounds, 0.19% hits; note: 0% is about no effect; nearly all actives have a fitted effect of over 55% in size; growth read by luminescence after 48 h
# LASV entry inh = qHTS for Inhibitors of binding or entry into cells for Lassa Virus; Lassa virus pseudotype entry inhibition, cell reporter; control for the full effect not named in the record; Potency, µM (series often up to 37.9 µM), inactives show at the top dose activity change, negative = inhibition, most hits filed as inhibitors; 300,000 compounds, 1.2% hits; AID 540256, 2011; active means well fitted inhibition curve with a large enough effect; inconclusive means small, poorly fitted or top-dose-only effect, or effect the other way; inactive means flat fitted curve, though single readings scatter; tested in HEK293 cells; note: % is set by controls: 0 for no effect and ±100 for the full control effect; nearly all actives have a fitted effect of over 50% in size; luciferase read-out
# MARV entry inh = qHTS for inhibitors of binding or entry into cells for Marburg Virus; 300,000 compounds, 1.8% hits; Potency, µM (highest dose often 37.8 µM), inactives show top-dose activity change, negative = inhibition, hits mostly inhibitors; AID 540276, 2011; Marburg virus pseudotyped entry inhibition, cell reporter; control for the full effect not named in the record; about a third of the inactives were read at about 46 µM; active = well fitted inhibition curve with a large enough effect; inconclusive = small, poorly fitted or top-dose-only effect, or effect the other way; inactive = flat fitted curve, though single readings scatter; tested in HEK293 cells; about a fifth of its hits are not listed in these tables; note: % is set by controls: 0 for no effect and ±100 for the full control effect; luciferase read-out
# Cruzain Triton = qHTS Assay for Promiscuous and Specific Inhibitors of Cruzain (with detergent) | 200,000 compounds, 0.43% hits | Potency, µM, for the others: max response, negative = inhibition, hits mostly inhibitors | purified cruzain, Z-FR-AMC fluorescence, 0.01% Triton; active = well fitted curve in the direction sought with a large enough effect; inconclusive = small, poorly fitted or top-dose-only effect, or another doubt; inactive = no such curve, though single readings can be large; an effect the other way counts as inactive or inconclusive;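 note: plate controls were neutral wells for no effect and buffer without enzyme for full effect; nearly all actives have a fitted effect of over 40% in size; top concentration of the series not given in the record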
#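 Steps: dispense cruzain (1.5 nM final) in acetate buffer pH 5.5 with DTT and 0.01% Triton X-100; pin-transfer compounds; incubate 15 min RT; add Z-FR-AMC (2 uM final); read fluorescence every 30 s, using the 60 s intensity change.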
# 2A StopGo = High Throughput Screening for Foot and Mouth Disease Virus Antivirals; Potency, µM (doses to about 57.9 µM), without a hit: at the top dose signal change, negative = less light; AID 1159524, 2015; human cells with a luciferase reporter of 2A StopGo recoding; control for the full effect not named in the record; 410,000 compounds, 1.2% hits; active = well fitted falling curve with a large enough effect; inconclusive = small, poorly fitted or top-dose-only effect; inactive = no such curve, though single readings can be large or run the other way; tested in HEK293T cells; note: % is set by controls: 0 for no effect and ±100 for the full control effect; nearly all actives have a fitted effect of over 45% in size; luciferase light after 4 h
# RE007 growth inh = qHTS Assay for Inhibitors of the HIV-1 protein Vpr. S. pombe RE007 Vpr strain, BacTiter-Glo ATP luminescence, 24 h; control for the full effect not named in the record. Potency, µM (doses to about 92.2 µM), for inactives: top-dose activity change, negative = less growth. 360,000 compounds, 0.21% hits; active = well fitted falling curve with a large enough effect; inconclusive = small, poorly fitted or top-dose-only effect; inactive = no such curve, though single readings can be large or run the other way;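 note: % is set by controls: 0 for no effect and ±100 for the full control effect; nearly all actives have a fitted effect of over 50% in size; the assay follows cell death caused by Vpr and the record does not say whether a fall means rescue or toxicity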
#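 Fission yeast RE007 carrying one integrated HIV-1 vpr copy, seeded at OD 0.01 in PMG+AL medium with 23 nL pinned compound. Grown 24 h at 30 degrees; viability read by BacTiter-Glo luminescence after 5 min.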
# The depositor's hits bear a star; ? = inconclusive; . = no result given; & = joins results of further samples; [ ] = dose if it differs, or a comment. Unless noted, calls come from the whole dose curve; as a rule, active means well fitted rising curve with a large enough effect; inconclusive means small, poorly fitted or top-dose-only effect; inactive means no such curve, though single readings can be large or run the other way. Potency is the fitted concentration of half-maximal effect.
SMILES,NS1 inh,Cruzain noTriton,SARS PLpro yeast,LASV entry inh,MARV entry inh,Cruzain Triton,2A StopGo,RE007 growth inh
N/C(=N\OC(=O)CCn1cccc(C(F)(F)F)c1=O)c1ccc(OC(F)(F)F)cc1,-2.1%,.,0.9%,?,16.2%[46.1 µM],.,3.6%,4.5%
O=C1C2=C(c3ccccc31)[N+](=O)C1CCCCC1N2[O-] (stereo unspecified),5.6%,-1.0%,-3.1%,0.0%,18.4%,2.1%,-0.3%,?
O=c1[nH]c(=O)n(-c2cccc3ccccc23)c(O)c1/C=N/N1CCCCCC1,1.6%,.,4.4%,14.3%,-5.6%,.,?,10.5%
Cc1sc2ncn(CC(=O)NCCCC(=O)N3CCC(C(N)=O)CC3)c(=O)c2c1C,11.1%,.,13.8%,.,13.4%[46.1 µM],.,4.1%,0.5%
CCOC(=O)c1c(C)c(C(=O)N2CCCCCC2)c(C)n1CC,-2.1%,1.4%,8.1%,0.0%,5.7%,1.4%,-10.9%,-7.5%
COc1ccc(/C=N/NC(=O)c2cc(-c3ccc(C)cc3C)nc3ccccc23)cc1COC(C)=O,10µM*,5.9%,1.2%,?,?,4.6%,-17.0%,-14.5%
C=CCN1C(=O)NC(=O)C(Cc2ccc(OC)c(OC)c2)C1=O (stereo unspecified),?,?,5.3%,-2.4%,1.7%,1.6%,2.0%,9.6%
O=C(NNc1ccccn1)C(c1ccccc1)c1ccccc1,.,.,-0.5%,-16.9%,.,.,-9.5%,7.1%
CCc1ccc(C(=O)COC(=O)CNC(=O)CNS(=O)(=O)c2ccccc2)cc1,13.8%,.,18.6%,10.4%,15.2%,.,-3.0%,-9.2%
CN(C)CCCNC(=S)N1CCN(c2nc(-c3ccccc3)cs2)CC1,23.5%,.,5.9%,1.0%[46.1 µM],?,.,-13.1%,-4.5%
COC(=O)Cc1cc(=O)[nH]c(/N=C(\N)Nc2ccc(C)cc2)n1,4.2%,1.6%,-7.9%[6.58 µM],14.0%,17.6%,3.3%,.,3.9%
COc1ccc(C(=O)Nc2ccc(N3CCN(C(=O)c4ccccc4C)CC3)cc2)cc1,12.3%,.,-1.4%,-23.6%,-20.8%,.,?,-4.1%
O=C(CCC(=O)N1CCOc2ccccc21)NCCCN1CCOCC1,-7.2%,.,-3.9%,.,.,.,-18.1%,3.7%
COc1ccc(CCN2C(=O)c3[nH]nc(-c4ccccc4O)c3C2c2cccc(O)c2)cc1OC (stereo unspecified),9.3%,-1.6%,-3.5%,?,6.6%&6.6%,-9.9%,-25.3%,13.4%
COCCN1C(=O)C(=O)/C(=C(/O)c2ccc(S(=O)(=O)N3CCOCC3)cc2)C1c1ccc(C(C)C)cc1 (stereo unspecified),-3.2%,?,-1.9%,.,.,-7.0%,.,.
COCCNC(=O)/C(C#N)=C\c1ccc(CNS(=O)(=O)c2ccccc2)o1,-2.0%,.,1.7%,-19.3%,-15.7%[46.1 µM],.,-1.9%,3.9%
Cc1ccc(C)c(C(=O)CCC(=O)NCc2ccc(Cl)cc2)c1,.,.,-2.5%,4.9%[46.1 µM],-0.8%[46.1 µM],.,5.8%,6.1%
CC(=O)c1ccc(NC(=O)c2cc(S(=O)(=O)N3CCOCC3)ccc2C)cc1,17.5%,-15.2%,-5.3%,-18.9%[46.1 µM],.,-3.8%,?,9.1%
Cc1cc(C)c(C#N)c(N2CCSCC2)n1,-9.6%,-2.0%,-10.8%,6.5%,?,-1.1%,-9.2%,-18.4%
CC(=O)N1CCN(S(=O)(=O)c2cccc(C(=O)Nc3ccccc3N3CCOCC3)c2)CC1,-7.4%,.,-0.4%,.,.,.,-15.8%,10.4%
Cc1ccc2c(Cl)cc(Cl)c(OCC(=O)NC3CCS(=O)(=O)C3)c2n1 (stereo unspecified),.,.,2.9%,13.8%[46.1 µM],?,.,-27.3%,14.4%
Cc1ccc(C)n1NC(=O)c1ccc(Cl)cc1Cl,?,12.6µM*,0.7%,-0.5%,0.1%,-2.1%,-22.7%,-0.8%
N#CCSc1nnc(-c2cccnc2)n1-c1ccccc1,2.0%,1.1%,5.9%,16.3%,-20.6%,3.8%,-22.3%,23.6%
Cc1cc(C)nc(OC(C(=O)O)C(OCCc2ccccc2)(c2ccccc2)c2ccccc2)n1 (stereo unspecified),19.8%,.,-4.6%,?,?,.,-27.8%,4.2%
CNC(=O)C1CC(=O)N(Cc2ccccc2)C(=Nc2ccc(OC)cc2)S1 (stereo unspecified),11.6%,29.4%,-2.1%,-23.1%,-5.6%,2.0%,1.9%,3.8%
CC(=O)N1CCc2ccc(S(=O)(=O)N3CCN(C)CC3)cc21,7.6%,-3.4%,13.6%,-19.4%,-0.8%,-1.1%,-24.3%,-4.5%
NC(=O)CSc1nc(C2CC2)nc2sc3c(c12)CCCC3,5.5%,.,-0.7%,.,.,.,12.8%,-13.8%
COc1ccc(-n2nc(C(=O)Nc3cccc(C(F)(F)F)c3)c3c4ccccc4n(C)c3c2=O)cc1,.,-9.3%,.,4.6%[46.1 µM],12.4%[46.1 µM],-1.4%,-6.0%,.
COC(=O)C1(NC(=O)NC2CCCCC2)CCCCC1,8.9%,.,-0.8%,-1.9%,-3.6%,.,15.5%,-6.2%
COc1ccccc1CNC(=O)c1cccn1-c1nnc(N2CCCC2)s1,.,-7.3%,.,-1.8%[46.1 µM],.,1.8%,14.5%,.
COC(=O)Cn1cnc2sc3c(c2c1=O)CCCC3,0.6%,.,1.3%,-13.0%,-19.7%[46.1 µM],.,13.3%,6.7%
Cc1ccc(Nc2nc(C(=O)NCCCN3CCOCC3)cs2)cc1,-2.6%,-7.0%,-3.5%,6.4%,-4.8%,-1.7%,0.1%,10.0%
O=S(=O)(c1cccc(F)c1)N1CCc2sccc2C1c1ccc(OC(F)(F)F)cc1 (stereo unspecified),1.1%,.,-2.1%,?,?,.,-26.0%,-8.9%
C=CCNCCOCCOc1ccc(C)cc1Br,9.8%,2.5%,-15.0%,?,?,0.1%,14.9%,5.1%
CN(C)/C=C1\SC(=S)N(N2C(=O)C3C4C=CC(C4)C3C2=O)C1=O (stereo unspecified),.,.,0.3%,?,-0.3%[14.2 µM],.,5.1%,5.4%
O=C(N/N=C/C=C/c1ccc([N+](=O)[O-])cc1)c1cccs1,-11.5%,?,-0.4%,16.7%,-19.8%[46.1 µM],?,12.2%,1.3%
CCN(CC(=O)NCc1ccc(F)cc1)C(=O)/C=C/c1ccc(S(=O)(=O)N(CC)CC)cc1,9.7%,.,3.1%,-26.5%[46.1 µM],?,.,-13.6%,7.1%
Cc1occc1C(=O)Nc1ccc2ccccc2c1,-143.5%,?,-18.0%,?,?,-6.2%,49.2%[activator],?
O=C(CCC1N=C2c3ccccc3N=C(SCc3cccc(F)c3)N2C1=O)NC1CCCCC1 (stereo unspecified),.,-9.6%,.,-6.7%[46.1 µM],.,-0.7%,-5.7%,.
O=C(N/N=C/c1[nH]c2ccccc2c1Cl)c1cccc(Br)c1,5.3%,.,0.8%,-12.2%[46.1 µM],?,.,-16.4%,-8.1%
CCCN(CCC)C(=O)c1c[nH]c2ccc(S(=O)(=O)N(C)c3ccc(Cl)cc3)cc2c1=O,.,-0.7%,.,?,.,1.1%,-4.5%,.
CCO/C(=C/c1sc2ccc(OC)cc2[n+]1CCCS(=O)(=O)[O-])CC,-4.6%,-9.1%,11.7%,-7.1%,5.8%,-3.1%,-19.4%,3.4%[3.69 µM]
O=C(COC(=O)Cc1ccccc1F)NCCNC(=O)COC(=O)Cc1ccccc1F,.,.,-3.6%,-0.6%,-9.8%,.,-12.5%,-1.6%
Cc1nnc(SCC(=O)Nc2sccc2C#N)s1,-0.8%,.,1.5%,22.4%[46.1 µM],?,.,6.5%,-3.7%
COc1ccccc1N1CCN(C(=O)CCc2nnc3n(C)c(=O)c4sccc4n23)CC1,.,-6.8%,.,5.3%[46.1 µM],3.1%[46.1 µM],6.8%,0.0%,.
O=C(Cn1c(=O)n(Cc2ccccc2)c(=O)c2sc3ccccc3c21)Nc1ccccc1F,.,9.8%,.,?,-19.1%[46.1 µM],-5.2%,0.0%,.
CCn1c(O)c(C=NCCN2CCOCC2)c(=O)[nH]c1=S,2.1%,.,0.4%,12.4%,-6.0%[46.1 µM],.,2.8%,-8.0%
CCN(CC)c1cc(C)c2cc(NC(=O)c3cccc(F)c3)ccc2n1,.,2.0%,.,-21.8%[46.1 µM],?,-5.5%,-1.0%,.
CC(C)(C)CC(=O)Nc1cc2c3c(c1)CCC(=O)N3CCC2,-0.7%,.,11.2%,.,.,.,10.1%,-11.7%
CCc1ccc(NC(=O)Cn2cccc2)cc1,.,.,-1.7%,13.9%,1.5%,.,13.0%,13.5%

# The listing continues:
SMILES,NS1 inh,Cruzain noTriton,SARS PLpro yeast,LASV entry inh,MARV entry inh,Cruzain Triton,2A StopGo,RE007 growth inh
Cc1nc(C(=O)N(C)C)nn1-c1ccc(Cl)cc1Cl,3.7%,9.5%,5.3%,-9.5%,-2.6%,2.8%,17.1%,2.8%
Cc1ccc(Cl)cc1N1CCN(C(=O)CCS(=O)(=O)c2ccc3c(c2)NC(=O)CO3)CC1,8.8%,.,-4.8%,.,.,.,-26.9%,-7.2%
NC(=O)C1CCN(c2ncnc3c2c(-c2ccccc2)cn3-c2ccccc2)CC1,6.8%,?,-5.9%,.,.,-3.1%,0.0%,1.9%
CCOC(=O)/C(=N/Nc1ccccc1)c1csc(Nc2ccccc2)n1,14.1%,-13.8%,-6.4%,1.8%,-6.5%,-1.8%,-16.2%,-5.0%
